Prx2 Sm inh – Schistosoma Mansoni Peroxiredoxins (Prx2) | AID 448, 2006 | S. mansoni Prx2 activity coupled to TGR/GSH (TGR is thioredoxin glutathione reductase), NADPH fluorescence loss, qHTS; some inactives read as strong as hits | actives 0.07% (n = 65,000) | Schistosoma mansoni peroxiredoxin 2 (Prx2) | Potency, µM; active means full or partial inhibition curve with a strong effect at the top dose; inconclusive means weaker partial or single-point curve; inactive means no accepted curve; further: series up to 57 µM; many of its hits are not listed in these tables
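Activity is read as the drop in NADPH fluorescence (365/450 nm), recorded every 30 sec for 8 min after H2O2 addition. Prx2 is coupled to TGR-driven NADPH oxidation through glutathione, in phosphate buffer pH 7.4.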
Anthrax LT inh – qHTS Assay for Anthrax Lethal Toxin Internalization; Cells, anthrax lethal toxin internalization, FRET ratio (460/530); Potency, µM (top dose mostly 40 µM), without a hit: at the top dose activity change, negative = inhibition, most hits filed as inhibitors; actives 0.67% (n = 70,000); AID 912, 2007; active = well fitted falling ratio curve with the 530 nm signal flat; inconclusive = other ratio curves, or a change in one channel alone; inactive = flat curves in the ratio and both channels; the % refers to the ratio; further: on the % scale 0 is the no-effect control and ±100 the full control effect; nearly all actives have a fitted effect of over 50% in size; tested in ME-180 cells; beta-lactamase reporter
Numbers without * were called inactive; u = inconclusive; x = no result given; & = joins results of further samples; [ ] = remark or other dose. Potency means the concentration at half of the fitted maximal effect.

cpd	Structure	Prx2 Sm inh	Anthrax LT inh
1	COc1ccc(C(=O)O[C@H]2CC[C@@]3(C)[C@H]4CC[C@H]5[C@]3(C[C@]3(O)[C@H]6CN7C[C@H](C)CC[C@H]7[C@](C)(O)[C@]6(O)[C@H](O)C[C@]53O)O[C@]24O)cc1OC	>57	1%[8 µM]
2	COc1cc(NC(=O)C2CCCN2C(=O)C2CCC(C)CC2)cc(OC)c1OC (centres undefined)	>57	7%
3	Cc1cc(Cl)ccc1OCC(=O)Nc1ccccc1N1CCOCC1	>57	16µM*
4	CCCCNC(=O)OCC(CC)NC(=O)OC(C)C (centres undefined)	>57	-7%
5	CC(C)CNc1cc(=O)n(C)c(=O)n1C	>57	u
6	COc1cc(C(=O)Nc2cccc(-c3nc4ccccc4o3)c2C)cc(OC)c1OC	>57	-6%
7	COc1ccc(S(=O)(=O)Nc2ccccc2C(=O)NCc2ccco2)cc1Br	>57	0%
8	O=c1[nH]c2ccccc2c(=O)n1Cc1ccco1	>57	-6%
9	COC(=O)c1c(C)cc(C)n2c1nc1ccccc12	>57	-6%
10	O=C1C=C(NCC2CCCO2)C2(CCCCC2)O1 (centres undefined)	>57	5%
11	CCOC(=O)c1[nH]c(C)c(C(=O)N(C)C)c1C	>57	4%
12	COc1ccc(NC(=O)Nc2c(C)n(C)n(-c3ccccc3)c2=O)cc1	>57	-4%
13	O=C(COC(=O)C1CCCCC1C(=O)N1CCc2ccccc21)NCc1ccco1 (centres undefined)	>57	-1%
14	C=C(C)c1cccc(C(C)(C)NC(=O)Nn2cnnc2)c1	>57	-18%
15	COC(=O)c1c(C)[nH]c(C)c1C(=O)c1ccccc1Cc1ccccc1	u	u
16	Cc1[nH]nc(N=Cc2c(O)n(C)c(=O)n(C)c2=O)c1-c1ccccc1	>57	8%
17	CCc1ccc(NC(=O)CSc2nnc(Cn3c(=O)sc4ccccc43)n2C)cc1	>57	u
18	COc1ccc(OC)c(NC(=O)CC(Cc2ccccc2OC)C(=O)O)c1 (centres undefined)	>57	-2%
19	CCOc1ccc(C2/C(=C(\O)c3c(C)[nH]c(C(=O)OC)c3C)C(=O)C(=O)N2CCN(C)C)cc1 (centres undefined)	>57	-7%
20	Cc1cccc2cc(COC(=O)C(C)C)c(=O)[nH]c12	>57	-15%
21	COC(=O)c1c(C)n(-c2ccc(OC)cc2)c2ccc(O)cc12	>57	u
22	Cc1ccc2nsnc2c1S(=O)(=O)N1CCN(CCc2ccccc2)CC1	>57	-16%
23	Cn1cccc1C(=O)NC(=O)COC(=O)c1ccccc1O	>57	-6%
24	Cc1cc(N2C(=O)C(=O)/C(=C(/O)c3ccc(F)cc3)C2c2ccc(Cl)cc2)no1 (centres undefined)	>57	14%
25	Cc1nnc(NC(=O)c2ccc(-c3cccc(C(F)(F)F)c3)o2)s1	>57	x
26	O=C(Nc1ccccc1)N1CCC(C(=O)N(Cc2ccco2)Cc2cccs2)CC1	>57	-3%
27	CCC/C=C(\CCC)C(NC(=O)OCC(C)C)c1ccc(C(=O)OC)cc1 (centres undefined)	>57	-19%
28	N#Cc1c(NC(=O)CSC2=NCCS2)sc2c1CCCC2	>57	u
29	COC(=O)C1=C(N)n2c(s/c(=C\c3cccnc3)c2=O)=C(C(=O)OC)C1c1cccnc1 (centres undefined)	>57	-22%
30	O=C(CCn1c(=O)oc2ccccc21)N1CCC2(CC1)OCCO2	>57	-14%

Some of these compounds in order of number of heavy atoms, falling.
cpd	Structure	Prx2 Sm inh	Anthrax LT inh
1	COc1ccc(C(=O)O[C@H]2CC[C@@]3(C)[C@H]4CC[C@H]5[C@]3(C[C@]3(O)[C@H]6CN7C[C@H](C)CC[C@H]7[C@](C)(O)[C@]6(O)[C@H](O)C[C@]53O)O[C@]24O)cc1OC	>57	1%[8 µM]
6	COc1cc(C(=O)Nc2cccc(-c3nc4ccccc4o3)c2C)cc(OC)c1OC	>57	-6%
3	Cc1cc(Cl)ccc1OCC(=O)Nc1ccccc1N1CCOCC1	>57	16µM*
25	Cc1nnc(NC(=O)c2ccc(-c3cccc(C(F)(F)F)c3)o2)s1	>57	x
4	CCCCNC(=O)OCC(CC)NC(=O)OC(C)C (centres undefined)	>57	-7%

More entries:
cpd	Structure	Prx2 Sm inh	Anthrax LT inh
31	Cc1cc(O)c(C(C)C)cc1N=Cc1ccccc1O	x	-6%[8 µM]
32	O=C(NC1=NCCS1)c1ccc2c(c1)C(=O)N(Cc1ccco1)C2=O	>57	4%
33	CCOC(=O)c1c(C)n(C)c2ccc(OCC(O)CN(CC)CC)cc12 (centres undefined)	>57	0%
34	Cc1ccccc1CN(c1ccc(C(=O)N2CCCC2)cc1)S(C)(=O)=O	>57	-3%
35	O=C(NCCCN1CCOCC1)c1cc2cc(Br)ccc2oc1=O	>57	5%
36	CC(=O)Nc1ccc(S(=O)(=O)NCc2ccc(C(=O)NCc3ccc4c(c3)OCO4)cc2)cc1	>57	6%
37	CCn1c(SCC(=O)N2CCCc3ccccc32)nc2ccccc2c1=O	>57	u
38	O=C(CSc1nccn1-c1ccc(F)cc1)NCc1ccc2c(c1)OCO2	>57	0%
39	COc1ccc(NC(=O)N2CC[C@@]3(CCCN(C(=O)Oc4ccccc4)C3)C2)cc1	>57	u
40	CCOC(=O)c1nnn(-c2nonc2N)c1-c1ccc(OCC)cc1	>57	-11%
41	COc1ccc(C2CC(=O)N3CN(c4ccccc4F)CSC3=C2C#N)cc1OC (centres undefined)	>57	10%
42	CC(=O)Nc1cccc(-c2nc3ccc(NC(C)=O)cc3[nH]2)c1	>57	-24%
43	Cc1ccc([N+](=O)[O-])c(C)c1	x	-8%
44	COc1cccc(C2N(c3ccc(Cl)c(Cl)c3)C(=O)C3CCCN32)c1OC (centres undefined)	>57	0%
45	Cc1cccc(Cn2c(N3CCN(c4ccccc4)CC3)nc3c2c(=O)n(C)c(=O)n3C)c1	>57	-5%
46	COC(=O)[C@@]1(Cc2ccc(F)cc2)[C@H]2c3cc(C(=O)N(C)C)n(Cc4ccc(OC(F)(F)F)cc4)c3C[C@H]2CN1C(=O)c1ccccc1	>57	2%
47	CCOC(=O)CC(=O)CSc1ccc2nnc(-c3ccc(C)cc3)n2n1	>57	u
48	Nc1nonc1C(=O)NCCc1ccccc1	>57	-9%
49	O=C(OCC(=O)N1CCN(c2ccccc2)CC1)c1ccco1	>57	9%
50	COc1cc(OC)c(C2=NOC(C(=O)O)C2)cc1Cl (centres undefined)	>57	-11%
51	O=C(O)C1CCC(=O)N1C1c2ccccc2Oc2ccccc21 (centres undefined)	>57	-2%
52	CSc1ccc(S(=O)(=O)Nc2cccc(F)c2)cc1	>57	19%
53	COc1ccc(C)cc1NC(=O)CNC(=O)Cn1ccc2ccccc2c1=O	>57	4%
54	CC(CN1CCOCC1)C(=O)O (centres undefined)	>57	-22%
55	CN(Cc1nc(-c2ccncc2)no1)S(=O)(=O)c1ccccc1	>57	1%
56	CCCCC(=O)N1CCCC(c2nc3c(nnn3Cc3cc(C)ccc3C)c(=O)[nH]2)C1 (centres undefined)	>57	u
57	Cc1ccc(C)c(C(=O)N(Cc2nc(-c3ccc(Cl)cc3)no2)C(C)C)c1	>57	u
58	Cc1cc(CNC(=O)C(C)Cc2ccccc2)nn1C (centres undefined)	x	-1%
59	CCOc1ccccc1NC(=O)CC1Nc2ccccc2NC1=O (centres undefined)	>57	0%
60	CCNc1ncc2nc(-c3ccccc3)c(=O)n(C)c2n1	>57	u
61	CCOC(=O)CCc1c(C)c2ccc(OCC(=O)N(CC)CC)c(C)c2oc1=O	>57	8%
62	Cc1ccc(CC2CC(=O)N(Cc3ccco3)C2=O)cc1 (centres undefined)	x	-2%
63	COc1cc2cc3c4cc(OC)c(OC)cc4cc[n+]3c(C)c2cc1OC	u	0%[3.58 µM]
64	CCC(C)NC(=O)c1ccccc1NS(=O)(=O)c1ccc(OC)c(OC)c1 (centres undefined)	>57	11%
65	CCOC(=O)N1CCN(C(=O)CN(c2ccc(C)c(C)c2)S(=O)(=O)c2ccccc2)CC1	x	u
66	Cn1c(=O)c2[nH]c(C3CCCC3)nc2n(C)c1=O	>57	5%
67	Cc1c(C#N)c2ccccc2n1CC(=O)NCCc1c[nH]c2ccccc12	>57	u
68	N#Cc1nc(COc2ccc(Br)cc2)oc1N1CCCCCC1	>57	u
69	CC(C)(C)NC(=O)CSc1nnc(NC(=O)CCn2cnc3ccccc3c2=O)s1	>57	-1%
70	NCC1(CC(=O)O)CCCCC1	>57&>57&>57	1%
71	N#CC1(c2c(O)nc3n(c2=O)CCCS3)CCCCC1	>57	-24%
72	CCc1[nH]nc2c1C1(CCN(C(=O)OCc3ccccc3)CC1)C(C#N)=C(N)O2	>57	-20%
73	CCN(CC)S(=O)(=O)c1ccc2c(c1)nc(CCC(=O)OCc1c(C)noc1C)n2C	>57	-14%
74	CN(C)Cc1c(O)ccc2[nH]cnc12	>57	-1%
75	CC(C)(C)NC(=O)C(c1ccccc1)N(C(=O)c1csnn1)C1CC1 (centres undefined)	>57	-6%
76	CC(C)(C)C(=O)Cn1c(=O)n(CC2CCCO2)c(=O)c2ccccc21 (centres undefined)	>57	-6%
77	Cc1ccc2oc(Nc3nc(C)cc(C)n3)nc2c1	x	-2%
78	O=C(Cc1ccccc1)Nc1cccc(N2CCCC2)c1	>57	-8%
79	CN(C)c1ccc(N=Cc2ccco2)cc1	>57	u
80	CCC1CCCCN1CCCn1c(=S)[nH]c2ccccc2c1=O (centres undefined)	>57	u
81	Nc1nc(N)c2[nH]c(CNc3ccc(C(=O)O)cc3)nc2n1	>57	u
82	CCOc1ccc(C(=O)Nc2c3c(nn2C(C)(C)C)CSC3)cc1OCC	>57	u
83	COC(=O)N1CC=CC1(C)C(=O)NCC1CC1 (centres undefined)	x	2%
84	CCCC1(CCC)C(=O)NC(=NCc2ccccc2)NC1=O	>57	13µM*
85	COc1ccc(S(=O)(=O)Nc2ccc(S(=O)(=O)N3CCCCC3)cc2)cc1OC	>57	-5%
86	CC(=O)Nc1ccc(NC(=O)c2cc(C)nn2-c2ccccc2)cc1	>57	4%
87	Cc1ccc(-c2cc3nc4c(c(=O)n3[nH]2)CCCC4)cc1	x	-14%
88	CSc1nnc(-c2ccco2)c(-c2ccco2)n1	>57	u
89	Cc1ccccc1N(Cc1nnc2n1CCCCC2)C(=O)Nc1ccccc1	>57	2%
90	Cn1c(=O)c2c(nc(NC(Cc3ccccc3)C(=O)O)n2Cc2ccccc2)n(C)c1=O (centres undefined)	>57	0%

Next part.
cpd	Structure	Prx2 Sm inh	Anthrax LT inh
91	COc1cc(-c2nnc(SCC(=O)N3CCCC3)o2)cc(OC)c1OC	>57	-2%
92	CSc1nnc(-c2ccc(S(=O)(=O)N3CCOCC3)cc2)n1CC1CCCO1 (centres undefined)	>57	-5%
93	Cc1cc(C)cc(C(=N)c2ccccc2Cc2cccc3ccccc23)c1	>57	u
94	Cc1nn(C)c(C)c1CN(C)C(=O)c1cc2n(n1)C(C(F)(F)F)CC(c1cccs1)N2 (centres undefined)	>57	-6%
95	Cn1c(=O)c2c(nc(NCCCO)n2CCc2ccccc2)n(C)c1=O	>57	-8%
96	Cc1cc(NS(=O)(=O)c2ccc(NC(=O)COc3ccccc3Cl)cc2)no1	>57	-4%
97	CCOC(=O)C1CCCN(c2ncnc3c2[nH]c2cccc(OC)c23)C1 (centres undefined)	>57	7%
98	CCCCOC(=O)COc1ccc(Cl)cc1Cl	x	13%
99	CCCc1nc2oc3c(NCCN4CCOCC4)ncnc3c2c2c1CCCC2	>57	-7%
100	CC(C)(C)c1ccc(OCC(=O)O)cc1	>57	-11%
101	CCn1c(SCC(=O)OC(C)C)nnc1-c1cccc(Cl)c1	>57	-19%
102	COCCCNC(=O)C1C2C=CC3(CN(Cc4ccc(C)cc4)C(=O)C13)O2 (centres undefined)	>57	9%
103	N#CCCCSc1nnc(CSc2nc3ccccc3s2)n1-c1ccccc1	>57	-11%
104	Cc1ccc(C)c2[nH]c(=O)c(CN(CC3CCCO3)S(=O)(=O)c3ccc4c(c3)OCCO4)cc12 (centres undefined)	>57	-18%
105	CCOC(=O)N1CCC(Nc2c(NCCN3CCN(Cc4ccccc4)CC3)c(=O)c2=O)CC1	>57	-7%
106	Cc1nc2nc(C)c(CCC(=O)N3CCc4ccccc43)c(C)n2n1	>57	-14%
107	COc1ccc2[nH]c(=O)c(CN(C(C)=O)c3cccc(C)c3)cc2c1	>57	2%
108	CCC(=O)N1c2ccc(S(=O)(=O)CCC(=O)Nc3nccs3)cc2CC1C (centres undefined)	>57	-11%
109	Cn1nnnc1CCOCCc1nnnn1C	>57	u
110	COC(=O)c1cccc(NC(=O)CSc2nnc(COc3ccc(C#N)cc3)n2-c2ccccc2)c1	>57	u
111	O=C(O)CCCC(=O)Nc1c(F)c(F)c(F)c(F)c1F	>57	-15%
112	COc1ccc(OCC(=O)N2CCN(c3cccc(C(F)(F)F)c3)CC2)cc1	>57	-10%

Screens deposited in PubChem BioAssay by National Center for Advancing Translational Sciences (NCATS).

An excerpt; count on the stated rates, not on these rows.
